YopH PTP inh = YopH (Yersinia) phosphatase inhibition; AID 898; inhibition, %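 (about 10 µM by stock and volumes)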; fluorescence Ex485/Em525; 140,000 tested, 0.16% active;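 active = inhibition of 50% or more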;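 also: controls were vehicle for no effect and minimum signal wells for full effect; inactives centre near -20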
RecA intein inh = blocks M. tuberculosis RecA intein splicing; P9WHJ3; cell-free RecA intein splicing, fluorescence; inhibition, %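 (about 9 µM by stock and volumes)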; 290,000 tested, 0.75% active; in the data active = inhibition above about 30%; inconclusive = no clear call, values can overlap the other calls;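 also: 0% = vehicle wells and 100% = reference inhibitor control wells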
Target sequence (P9WHJ3 whole entry, looked up): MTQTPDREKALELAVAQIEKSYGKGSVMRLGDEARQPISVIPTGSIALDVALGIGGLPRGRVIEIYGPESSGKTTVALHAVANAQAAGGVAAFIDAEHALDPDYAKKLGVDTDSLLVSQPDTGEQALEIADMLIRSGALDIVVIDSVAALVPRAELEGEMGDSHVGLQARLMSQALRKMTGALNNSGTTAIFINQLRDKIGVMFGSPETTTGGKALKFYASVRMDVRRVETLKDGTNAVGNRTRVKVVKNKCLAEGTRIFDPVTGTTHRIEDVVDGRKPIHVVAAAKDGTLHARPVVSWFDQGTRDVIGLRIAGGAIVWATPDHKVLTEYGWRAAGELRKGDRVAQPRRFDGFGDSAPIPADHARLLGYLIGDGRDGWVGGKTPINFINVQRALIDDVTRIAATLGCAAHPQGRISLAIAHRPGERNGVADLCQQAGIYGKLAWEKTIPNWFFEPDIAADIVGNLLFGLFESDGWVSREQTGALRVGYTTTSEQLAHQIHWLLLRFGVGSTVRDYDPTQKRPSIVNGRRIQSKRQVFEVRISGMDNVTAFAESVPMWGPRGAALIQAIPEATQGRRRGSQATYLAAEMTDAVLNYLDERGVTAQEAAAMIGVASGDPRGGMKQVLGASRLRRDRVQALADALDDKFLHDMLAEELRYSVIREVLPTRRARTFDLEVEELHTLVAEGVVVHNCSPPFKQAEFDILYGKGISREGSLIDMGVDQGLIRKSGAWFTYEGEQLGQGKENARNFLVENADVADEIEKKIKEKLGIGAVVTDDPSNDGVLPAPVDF
Mtb betalactam = beta-lactam sensitization of Mtb H37Rv; M. tuberculosis H37Rv growth with meropenem, percent inhibition; hits of this screen are not shown here; inhibition, % at 25 µM; 330,000 tested, 0.27% active; AID 434955;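 active = about 74% or more and at least 40 points above the plate without the antibiotic, then above 30% in a dose series; inconclusive = first-round hits that could not be retested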;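 also: growth measured after seven days incubation then overnight dye step; 0% = bacteria only wells and 100% = bacteria with antibiotic; twin plates without the antibiotic show which effects depend on it; some results filed as inactive read as strong as hits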
Arbovirus anti = blocks arbovirus infection; inhibition, % at 10 µM; arbovirus infection cell-based antiviral screen; 200,000 tested, 0.37% active;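 active = inhibition from about 30%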;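 also: bluetongue infection of BSR cells; cell survival read as ATP light after 72 h; 0% = infected wells without compound and 100% = uninfected wells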
Mtb H37Rv = M. tuberculosis H37Rv growth inhibitors, H37Rv strain (AID 1626). M. tuberculosis H37Rv growth inhibition; higher % means a stronger effect. inhibition, % at 10 µM; hits with a dose series show IC50 in µM. 220,000 tested, 0.95% active;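 active = confirmed in a dose series; inconclusive = inhibition above 80% but not taken into the dose series; inactive = below 80% or under 30% at every dose of the series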;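 also: bacteria incubated seven days before Alamar blue readout; 0% = bacteria only wells and 100% = bacteria with antibiotic wells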
Arbovirus anti repeat = second read-out of Arbovirus anti, no call of its own (marks repeat the call); inhibition, %; measured here: 10K subset replicate screen; many hits read low in the repeat;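 first of two repeat runs on a subset; 0% = infected and 100% = uninfected wells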
Active calls of the source: *; ? = inconclusive; . = not tested or not shown. These rows are one share of the data; rates above refer to the full screens.

SMILES	YopH PTP inh	RecA intein inh	Mtb betalactam	Arbovirus anti	Mtb H37Rv	others
Cc1cc(C(=O)N/N=C2\CC(=O)c3ccccc32)c(C)n1-c1ccccc1	.	12	-4	-3	-1%
NC(=O)C1=C[C@H](c2coc3ccccc3c2=O)C[C@H](OCCCCO)O1	.	-3.8	-3	10	-3%
COC(=O)C1CCN(C(=O)CSc2ccccc2)CC1	-26	-3.5	6	0	-6%
O=C1c2ccccc2C(=O)N1Nc1ccccc1	13	-0.5	93	-39	.
O=C(N/N=C/c1ccc(Sc2ccccn2)o1)c1cc2ccccc2cc1O	-37	-66	69	-7	72%
COc1ccc(CCNC(=O)COC(=O)c2ccco2)cc1OC	-5	-3.8	-6	3	-9%
O=C(COc1c(F)c(F)cc(F)c1F)NC(=O)NC1CCCC1	-25	-4.1	0	0	-12%
COCCCNC(=S)Nc1c(C)cc(C)cc1C	.	1.5	-4	.	7%
COc1ccc(S(=O)(=O)N2CCCCCC2)cc1C(=O)N(CC(C)C)C1CCS(=O)(=O)C1 (centres undefined)	.	-0.5	5	.	.
CC(Sc1cnc2ccccc2n1)C(=O)O (centres undefined)	-28	-1.2	-4	2	-2%
O=C(CN1CCCc2ccccc21)NCCc1ccc(F)cc1	.	1.3	1	0	2%
Cc1ccc(S(=O)(=O)NCC(=O)N(CC(=O)NCC2CCCO2)Cc2ccco2)cc1 (centres undefined)	.	-0.2	3	18	11%
Cc1ccc(N(C(=O)CNC(=O)c2ccco2)C(C(=O)NC2CCCCC2)c2ccncc2)cc1F (centres undefined)	.	-2.3	-2	.	.
COc1cc(OC)cc(C(=O)NC(c2ccccc2)c2ccccc2)c1	.	0.2	-4	.	.
CSc1nnc(-c2ccc([N+](=O)[O-])cc2)o1	.	-0.2	17	-7	34%
O=C(NCCc1ccccc1F)C1CCC(=O)N(Cc2ccccc2F)C1 (centres undefined)	.	-1.8	0	.	.
COc1ccccc1N=c1scc(-c2ccc3c(c2)NC(=O)CO3)n1CC1CCCO1 (centres undefined)	-12	3.7	0	8	-2%
c1ccc2sc(Sc3ncnc4sccc34)nc2c1	-43	.	100	-35	?
Cc1ccc2[nH]cc(C(=O)CN3CCN(c4ccccc4F)CC3)c2c1	8	-0.5	4	0	-3%
COc1ccc(N(CC(=O)Nc2cc(C)ccc2C)S(=O)(=O)c2ccccc2[N+](=O)[O-])c(OC)c1	.	2.6	-6	0	-4%
COc1ccc(CCNC(=O)c2cc(CC(C)C)on2)cc1OC	-34	0.9	4	8	-1%
O=C(NCc1cccnc1)c1cc2ccccc2oc1=O	-11	-0.7	11	7	2%
COc1ccc(-c2csc3nc(C)nc(N4CCC(C)CC4)c23)cc1OC	.	17	6	-9	2%
Cc1cc(C)c(NC(=O)C2c3ccccc3Oc3ccccc32)c(C)c1	-18	-1.9	-9	-10	-2%
Cc1ccc(SCCC(=O)OCC(=O)Nc2ncc(Cl)cc2Cl)cc1	-11	0.7	-7	3	-8%

Next section; the last two above are carried over.
SMILES	YopH PTP inh	RecA intein inh	Mtb betalactam	Arbovirus anti	Mtb H37Rv	others
Cc1cc(C)c(NC(=O)C2c3ccccc3Oc3ccccc32)c(C)c1	-18	-1.9	-9	-10	-2%
Cc1ccc(SCCC(=O)OCC(=O)Nc2ncc(Cl)cc2Cl)cc1	-11	0.7	-7	3	-8%
O=C(CSc1nnc(-c2ccccc2)c(-c2ccccc2)n1)NC1CCS(=O)(=O)C1 (centres undefined)	.	1.5	2	3	4%
COc1cc2ncnc(NCCc3ccccc3)c2cc1OC	.	-1.9	-5	18	-3%
Cc1nnc(NN2CCOCC2)[nH]c1=O	.	-7.7	-1	-3	-4%
CCOCCn1c(=NC(=O)CSCC(=O)Nc2cc(C)on2)sc2cc(OC)ccc21	.	-1.4	-2	.	.
Cc1cc2ccccc2c(=O)n1CC(=O)N(C)c1ccc(F)cc1	5	-4.1	-1	1	9%
O=C(CN1C(=O)c2ccccc2S1(=O)=O)c1ccc(F)c(F)c1	.	-1.2	-16	.	.
Cc1cccc(Cn2cnc3c(NS(C)(=O)=O)c(C)c(C)cc32)c1	-11	-0.3	5	-5	-2%
COc1ccc(-n2nc3c(N4CCC(C(=O)NCc5ccccc5)CC4)nnc(C)c3c2C)cc1	.	-2.5	11	.	.
CCCCCSc1nc(O)cc(=O)[nH]1	4	8.0	1	-2	-12%
Cc1ccccc1NC(=O)c1cc(S(=O)(=O)N2CCOCC2)cn1C	.	-2.7	-2	.	.
Nc1c(C(=O)Nc2ccc(Cl)c(Cl)c2)sc2nc(-c3cccnc3)ccc12	-2	-4.0	6	5	-3%
Cc1ccsc1C(=O)Nc1cc(C(C)(C)C)nn1-c1ccccc1	-13	-2.3	-8	-1	-1%
N#Cc1nc(-c2cccs2)oc1NCc1ccccc1Cl	-10	5.8	74	-6	.
Cc1ccc(NC(=O)CN2CCCC2)cc1Br	.	-0.7	-8	.	.
COc1ccc(C(O)Cn2ccsc2=NC(C)=O)cc1 (centres undefined)	.	2.8	1	.	.
CCCCOc1cc(C)nc(NCc2ccccc2)n1	27	4.0	4	-18	-13%
CS(=O)(=O)c1ccccc1-c1nc(-c2cc(C(F)(F)F)cc(C(F)(F)F)c2)no1	-4	2.6	1	-2	.
COc1cccc(-n2c(SCC(=O)NC(C)(C)C)nnc2-c2ccoc2C)c1	-28	1.6	-6	-6	-2%
CCOc1ccc(NC(=O)CN(C)C(=O)c2ccc(N3CCCCC3)c([N+](=O)[O-])c2)cc1OCC	.	1.2	-8	.	.
COc1ccc2c(CC(=O)N[C@@H](Cc3c[nH]c4ccccc34)C(=O)O)cc(=O)oc2c1	.	-2.2	14	.	.
COc1cc(NC(=O)NCC2CCN(Cc3ccccc3C)CC2)cc(OC)c1OC	.	-0.1	3	.	.
COC(=O)C1=C(C(=O)OC)[C@@H]2N(Cc3ccccc3)c3ccccc3[C@@]23C[C@@H](C(=O)OC)N(C(=O)CC(C)C)C3=N1	.	9.5	0	.	-4%
CCC(C)[C@H](NC(=O)Nc1ccc(S(N)(=O)=O)cc1)C(=O)O (some centres undefined)	-32	1.0	3	1	-3%
O=C(COc1ccc(=O)n(-c2ccccc2)n1)Nc1ccccc1	-24	-2.3	3	9	5%	Arbovirus anti repeat=3
O=C(CCN1C(=O)c2ccccc2S1(=O)=O)NCc1ccco1	3	1.3	2	10	-7%
Going on with the list:
SMILES	YopH PTP inh	RecA intein inh	Mtb betalactam	Arbovirus anti	Mtb H37Rv	others
O=C(Cc1cccc(C(F)(F)F)c1)OCC(=O)N1CCN(S(=O)(=O)c2ccc(Cl)cc2)CC1	.	-0.8	-7	.	.
C[C@H](NC(CCc1ccccc1)C(=O)O)C(=O)N1CCC[C@H]1C(=O)O (some centres undefined)	.	-1.1	0	.	-1%
Cc1cccc(C)c1N=C1NN=C(c2ccccc2F)CS1	-28	-1.2	2	-13	7%
Cc1ccccc1CC(=O)Nc1ccc(S(=O)(=O)N2CCN(C)CC2)cc1	.	-1.6	3	.	.
Cc1ccc(N(C(=O)CNC(=O)c2ccco2)C(C(=O)NCC2CCCO2)c2ccccc2)cc1 (centres undefined)	-30	2.0	-8	2	-11%
COc1ccccc1C(=O)NCC(=O)NC(C)CCc1ccccc1 (centres undefined)	.	1.2	-4	.	.
COC1=C(c2ccccc2)C(=O)c2ccccc2C1=O	49	69*	4	-31	4%
O=C(Nc1cccnc1)C1OCCc2ccccc21 (centres undefined)	-26	-3.7	-3	2	2%
CCN(CC)Cc1c(O)ccc2c1O/C(=C\C=C\c1ccccc1)C2=O	.	-4.4	8	.	-1%
O=C(OCc1ccccc1)N1CCOCCN(C(=O)OCc2ccccc2)CCOCC1	.	0.9	-1	7	0%
COc1cccc2cc(C(=O)NCCc3c[nH]c4ccccc34)c(=O)oc12	.	3.1	97	-3	?
CCc1ccc(/C=N\NC(=O)c2ccc(Br)o2)s1	-32	1.8	4	-14	23%
CC1=C(C(=O)Nc2ccccc2)C(c2coc3ccccc3c2=O)C2=C(CCCC2=O)N1 (centres undefined)	-20	-0.8	-3	-6	0%
COc1cc(CNc2nnnn2C)ccc1OCc1ccc(F)cc1Cl	.	1.0	3	3	5%
O=C(Cn1cc(C(F)(F)F)ccc1=O)NCc1ccc(F)cc1	.	-0.7	2	.	.
O=C(Nc1cc(S(=O)(=O)N2CCCCC2)ccc1Cl)c1ccccc1NS(=O)(=O)c1ccc(F)cc1	-28	1.6	7	-5	9%
CCN1CCN(c2ccc(NC(=O)CCc3c(C)nc4c(-c5ccccc5)c(C)nn4c3C)cc2)CC1	-21	-1.7	17	-49	13%
COCCN(C(=O)CCC(=O)Nc1nccs1)C(C(=O)NC(C)(C)C)c1ccc(Cl)cc1 (centres undefined)	.	3.0	0	15	-4%
CCCCSc1nc2c(cnn2-c2ccc(Cl)cc2)c(=O)[nH]1	-27	-0.4	-9	-13	.
Cc1cccc(C)c1NC(=O)NC1(C(=O)N2CCCC2)CCCCC1	.	0.9	-1	.	.
O=c1cc(CSc2ccc(Cl)cc2)nc2nc[nH]n12	-42	0.2	-8	1	-11%
COc1ccc(C(=O)O/N=C(\N)c2ccc(Br)cc2)cc1	.	-4.9	-3	.	.
COc1ccccc1N1CCN(C(=O)c2cn(-c3ccccc3)nc2-c2cccnc2)CC1	-36	2.8	0	-14	-4%
CC(NC(=O)COC(=O)/C=C/c1cccc(C(F)(F)F)c1)c1ccccc1 (centres undefined)	0	1.1	4	5	5%
N/C(Cc1ccc([N+](=O)[O-])cc1)=N\OC(=O)COc1cccc2ccccc12	-31	-0.5	17	17	7%

In the list so far, these have a CF3 group:
SMILES	YopH PTP inh	RecA intein inh	Mtb betalactam	Arbovirus anti	Mtb H37Rv	others
CS(=O)(=O)c1ccccc1-c1nc(-c2cc(C(F)(F)F)cc(C(F)(F)F)c2)no1	-4	2.6	1	-2	.
O=C(Cc1cccc(C(F)(F)F)c1)OCC(=O)N1CCN(S(=O)(=O)c2ccc(Cl)cc2)CC1	.	-0.8	-7	.	.
O=C(Cn1cc(C(F)(F)F)ccc1=O)NCc1ccc(F)cc1	.	-0.7	2	.	.
CC(NC(=O)COC(=O)/C=C/c1cccc(C(F)(F)F)c1)c1ccccc1 (centres undefined)	0	1.1	4	5	5%

An excerpt from above in order of length of the SMILES, rising.
SMILES	YopH PTP inh	RecA intein inh	Mtb betalactam	Arbovirus anti	Mtb H37Rv	others
O=C(Nc1cccnc1)C1OCCc2ccccc21 (centres undefined)	-26	-3.7	-3	2	2%
CSc1nnc(-c2ccc([N+](=O)[O-])cc2)o1	.	-0.2	17	-7	34%
N/C(Cc1ccc([N+](=O)[O-])cc1)=N\OC(=O)COc1cccc2ccccc12	-31	-0.5	17	17	7%
CS(=O)(=O)c1ccccc1-c1nc(-c2cc(C(F)(F)F)cc(C(F)(F)F)c2)no1	-4	2.6	1	-2	.

(further entries)
SMILES	YopH PTP inh	RecA intein inh	Mtb betalactam	Arbovirus anti	Mtb H37Rv	others
COc1cccc(N2CCN(S(=O)(=O)c3cn(C)cn3)CC2)c1	.	0.0	4	.	.
COc1ccccc1CNC(=O)C1CC(=O)N(C2CCCC2)C1 (centres undefined)	-9	3.5	0	-3	-4%
CCc1cccc(C)c1NC(=O)c1ccccc1	.	-4.3	-1	-8	4%
Cc1cc(NC(=O)C2CCN(S(=O)(=O)c3c(C)noc3C)CC2)ccc1Br	.	-4.9	16	.	.
Cc1nn(-c2ccccc2)c(C)c1C(=O)OC/C(O)=C(\C#N)c1nc2ccccc2[nH]1	-41	1.4	41	-12	1%
Cc1ccc(CN2C(=O)CCC2C(=O)NCCN(CC(C)C)CC(C)C)cc1 (centres undefined)	5	-4.5	3	0	1%
Cc1nc(-c2ccccc2)sc1C(=O)CSc1ccc(Br)cc1	-43	0.8	-3	-23	-3%
CN(C)c1ccc(/C=C2\C(=N)N3N=C(CC(=O)N4CCCC4)SC3=NC2=O)cc1Br	.	-1.9	0	.	.
O=C(CCC(=O)c1cccs1)NCc1cccc(C(F)(F)F)c1	.	-2.2	-2	.	.
CCOc1ccc2nc(N3CCC(C(=O)N4CCN(C5CCCCC5)CC4)CC3)sc2c1	-11	0.2	-7	-14	2%	Arbovirus anti repeat=-2
CC(NCc1cc(Br)ccc1OCC(=O)NCc1ccccc1)c1ccccc1 (centres undefined)	.	5.5	79	15	0%
Cc1nc(-c2cn[nH]c2-c2ccc(O)cc2O)cs1	-5	-3.9	9	9	0%
Cc1cc(C)c(S(=O)(=O)Nc2ccc(O)cc2)c(C)c1	-36	-2.6	2	-6	2%	Arbovirus anti repeat=-6
COc1ccc(N2CCN(C(=O)COC(=O)CCOc3ccc(C(C)(C)C)cc3)CC2)cc1	.	-0.3	-9	.	.
Cc1ccc(C)c(S(=O)(=O)Nc2ccc(C(=O)NCCCN3CCCC3=O)cc2)c1	.	4.5	-4	.	.
CCOc1ccc(N(CC(=O)NCC(C)C)S(C)(=O)=O)cc1	-27	-0.3	-13	2	-3%	Arbovirus anti repeat=5
COc1ccc(C(=O)Nc2cccnc2)cc1C(=O)Nc1cccnc1	-47	2.2	-1	6	12%

Assay outcomes: PubChem, several laboratories
